HSD17B inhib: inhibitors of human HSD17B10 dehydrogenase; Q99714; recombinant HSD17B10, NADH fluorescence kinetic; many of its hits are not listed in these tables; Potency, µM (top dose mostly 57.1 µM), inactives show top-dose activity change, negative = inhibition, hits mostly inhibitors; hit rate 7.6% among 75,000; active = well fitted inhibition curve with a large enough effect; inconclusive = small, poorly fitted or top-dose-only effect; inactive = no such curve, though single readings can be large or run the other way;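 also: the protocol describes HADH2 (HSD17B10) and not the HSD17B4 of the title; nearly all actives have a fitted effect of over 70% in size; most hits overshoot -100% by far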
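His-tagged E. coli-expressed HADH2 at 20 nM in 100 mM Tris-HCl pH 9.0 with 0.01 % Tween-20, preincubated 15 min with compound at room temperature. Reaction with 1 mM NAD+ and 90 uM beta-hydroxybutyryl coenzyme A; NADH fluorescence (360/450 nm) read kinetically over 4 min, last minus first point.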
Numbers without * were called inactive; ? = inconclusive; [ ] = remark or other dose. % is scaled to controls: 0 for no effect and ±100 for the full control effect; potency is read from the fitted curve at half-maximal effect.

canonical_smiles,HSD17B inhib
Cc1[nH]c(=O)[nH]c(=O)c1S(=O)(=O)N(C)Cc1ccccc1,-2%
CCC(C)Sc1nc2c(c(=O)n1C)SC(C)C2 (stereo not drawn),?
COc1cc(OC)c2c(OC)c(-c3ccc4c(c3)OCO4)c(=O)oc2c1,?
CCN(CC)c1ccc(NC(=O)CC2Oc3ccccc3NC2=O)c(C)c1 (stereo not drawn),3%
CCOc1ccc(CC(=O)C2C(=O)CCCC2=O)cc1OCC,-20%
O=C(COC(=O)c1cccnc1)Nc1ccc(F)cc1,-7%
c1ccc(-c2n[nH]nc2-c2ccccc2)cc1,-6%
COc1ccc(C(=O)NCc2c(CC(C)C)oc(C)c2C(=O)O)cc1,-13%
CCN1C(c2ccc(F)cc2)=CS/C1=C(\C#N)c1nnc2n1-c1ccccc1SC2,-6%
O=C(Cc1cccs1)Nc1nncs1,-18%
CCCn1c(SCC(=O)NCCc2ccc(OC)c(OC)c2)nc2c1c(=O)n(C)c(=O)n2C,1%
O=C(c1nn2cccnc2c1Cl)N1CCN(c2ccccc2)CC1,-13%
CN(C)CCCN(C(=O)c1cccs1)c1nc(-c2ccccc2)cs1,-6%
O=[n+]1c2c(n([O-])c3c1CCCC3)CCCCC2,3%
O=C(NCc1nc2ccccc2[nH]1)c1ccco1,3%
O=C(OCC#CCSc1nnc(-c2ccccc2)o1)c1ccco1,-2%
Cc1cc2c(ccc3c2no[n+]3[O-])nn1,8%
Cc1cccc(CCNS(=O)(=O)c2ccc3c(c2)oc(=O)n3C)c1,6%
CN1C(=O)/C(=C2/C=Cc3ccccc3N2CCCS(=O)(=O)O)SC1=S,-19%
CC(C)(C)c1nc(NCCN2CCOCC2)c2nnn(Cc3ccccc3Cl)c2n1,-2%
O=C(CSC1=NCCN1)C1COc2ccccc2O1 (stereo not drawn),-9%
O=C(CN1CCOCC1)Nc1cccc(Br)c1,2%
O=c1c2[nH]c3cccc(Cl)c3c2ncn1CCN1CCCCC1,-1%
COc1ccc(C(CC(=O)NCCCN2CCOCC2)NS(=O)(=O)c2ccc(C)cc2)cc1 (stereo not drawn),-1%
c1ccc(Cc2nnc3sc(C4COc5ccccc5O4)nn23)cc1 (stereo not drawn),-28%
COC(=O)c1[nH]c2ccc(C)cc2c1NC(=O)CN1CCN(C(=O)c2ccccc2)CC1,25µM*
O=c1c(-c2cccc(Cl)c2)nc2cncnc2n1Cc1ccc(F)cc1,-12%
Nn1c(Cc2cccc3ccccc23)nnc1SC1CCOC1=O (stereo not drawn),-2%
COc1cccc(-n2nnc3c(=O)n(Cc4cccc(F)c4)cnc32)c1,-13%
CCn1c(NC2CCCCC2)nc2ccccc21,-3%
CC(C)c1nc2oc3c(N4CCN(C)CC4)ncnc3c2c2c1CCC2,11%
CCc1c(O)nc(SCC(=O)N2CCOCC2)n(-c2ccccc2)c1=O,1%
CCN(CC)/C(=N/O)NC(=O)NS(=O)(=O)c1ccc(C)cc1,5%
O=C(O)CCCC(=O)Nc1ccc(Br)cc1C(=O)O,0%
CCOc1ccccc1NC(=O)CSc1nccn1-c1ccccc1,8%
COC(=O)c1[nH]c2cc(OC)ccc2c1N,25µM*
O=C1CSC(c2cccc(F)c2)N1c1ccccc1F (stereo not drawn),-1%
CCOC(=O)c1cccc(NC(=O)Cn2cc3c(n2)CCC(C)C3)c1 (stereo not drawn),1%
C/C(O)=C(\C#N)c1nnc2n1CCCCC2,6%
COCC(C)n1c(SCC(=O)N2CCCCC2)nc2ccccc2c1=O (stereo not drawn),5%
Cc1c(C(N)=O)sc(N)c1C(=O)OC(C)C,-21%
CCCn1c(SCC(=O)c2cc(OC)ccc2OC)nnc1C(C)C,-10%
C1CCN(CC[C@@H]2CCCCN2)CC1,4%[11.4 µM]
Cc1cccc2c(=O)cc(C)n(CC(=O)N3CCOCC3)c12,3%
Oc1cccnc1CN1CCCCC1,8%[11.4 µM]
Clc1ccccc1C1=Nn2c(nnc2-c2ccncc2)SC1,3%
O=C(C1CCN(S(=O)(=O)N2CCC3(CC2)OCCO3)CC1)N1CCC(Cc2ccccc2)CC1,0%
COc1cccc(C(c2nnnn2Cc2ccccc2)N2CCN(C3CCCC3)CC2)c1OC (stereo not drawn),2%
CCOC(=O)N1CCN(c2c(NCCCN(CC)c3cccc(C)c3)c(=O)c2=O)CC1,-11%
C(=Nc1ccc2c(c1)Cc1ccccc1-2)c1ccccn1,-9%[11.4 µM]
Cc1nc(=O)c(-c2ccccc2)c(C)n1CCCO,4%
Cn1c(=O)cc(SCC(=O)Nc2ccc3c(c2)OCO3)c2ccccc21,-23%
N=c1c2c3c(sc2nc2n1CCC2)CCCC3,-2%
CCOCC(=O)O,0%
O=C(CCCOc1ccccc1)NCC1CCCO1 (stereo not drawn),0%
CC1(C)CC(=O)C2=C(C1)OC(N)=C(C#N)C21CCC2(CC1)OCCO2,-7%
Nc1ccc(-c2ccc(Nc3cc(S(=O)(=O)O)c(N)c4c3C(=O)c3ccccc3C4=O)cc2)c(S(=O)(=O)O)c1,3.2µM*
CCC(C)[C@H](NC(=O)NCc1ccccc1Cl)C(=O)OC (stereo partly drawn),7%
COC(=O)Nc1ccc(S(=O)(=O)N2CCCC(C(=O)Nc3cccc4c3OCCO4)C2)cc1 (stereo not drawn),2%
O=C(CSc1nnnn1-c1ccccc1)c1cc2ccccc2oc1=O,-19%

(more compounds)
Structure	HSD17B inhib
Cc1ccc(C(=O)CC2(O)C(=O)N(C)c3ccc(Br)cc32)c(C)c1 (stereo not drawn)	-4%
Cn1cc(C(F)(F)F)nc1-c1ccc(OC[C@@H](O)CNCCOc2ccc(O)c(C(N)=O)c2)cc1	40µM*
COc1ccc(Cc2nnc(SCC(=O)NC(C)c3ccccc3)o2)cc1 (stereo not drawn)	5%
COc1ccc(/C=C/C(=O)c2cccs2)c(OC)c1	-25%
CCCCC(CCC(=O)Nc1ccccc1C(=O)OCC)C(=O)O (stereo not drawn)	25µM*
COC(=O)CC(C(=O)Nc1cc(C(=O)OC)cc(C(=O)OC)c1)N1CCN(C)CC1 (stereo not drawn)	-6%
Cc1ccc(S(=O)(=O)N(CC(=O)N2CCCC2)C2CCCCC2)cc1	-1%
O=C(CSc1nc(-c2ccccc2)c(-c2ccccc2)o1)N1CCOCC1	-9%
COc1cc2c(C(=O)Nc3ccc4c(c3)OCO4)cn(CC(C)C)c(=O)c2cc1OC	0%
O=C(O)c1ccccc1C(=O)Nc1ccccc1	-3%

Single entries from above:
COc1ccc(/C=C/C(=O)c2cccs2)c(OC)c1 in HSD17B inhib reads -25%
Cc1ccc(C(=O)CC2(O)C(=O)N(C)c3ccc(Br)cc32)c(C)c1 (stereo not drawn) in HSD17B inhib reads -4%
COc1cc2c(C(=O)Nc3ccc4c(c3)OCO4)cn(CC(C)C)c(=O)c2cc1OC in HSD17B inhib reads 0%

The listing picks up; the 2 compounds before the break are reprinted first.
Structure	HSD17B inhib
COc1cc2c(C(=O)Nc3ccc4c(c3)OCO4)cn(CC(C)C)c(=O)c2cc1OC	0%
O=C(O)c1ccccc1C(=O)Nc1ccccc1	-3%
O=C(Nc1cccc(Cl)c1)NC1CCCCC1	9%
CCCCOc1ccc(C2CC(=O)NC2=O)cc1 (stereo not drawn)	4%
CC(=O)c1c(C)n([O-])c2ccc(C)cc2[n+]1=O	-3%
O=C(Nc1cccc(F)c1)N1CCC2(CC1)CCN(C(=O)c1ccco1)CC2	7%
Cc1ccc(CN2CCC(C(=O)NCCC(C)C)CC2)o1	-6%
CNC(=O)CSc1nnc(-c2ccc(S(=O)(=O)N3CCCC3)cc2)n1-c1cccc(C)c1C	?
O=C(O)C1C2CCC(C2)C1C(=O)NCCCn1ccnc1 (stereo not drawn)	15%
CCc1cccc(NC(=O)CS(=O)Cc2nc(-c3ccc(C)cc3)oc2C)c1 (stereo not drawn)	-25%
O=C(CSc1nnc(-c2ccccn2)n1Cc1ccccc1)N1CCCC1	-1%
CC1=C(C(=O)Nc2ccccn2)C(c2ccc(F)cc2)n2ncnc2N1 (stereo not drawn)	-2%
COCCn1nnnc1C(c1ccccc1Cl)N1CCN(c2ccccc2OC)CC1 (stereo not drawn)	0%
Cc1cccc(NC2=NCC(=O)N2Cc2ccccc2)c1	-15%
COc1ccc(CCNC(=O)c2c(O)c3cccc4c3n(c2=O)CC4)cc1OC	-1%
COc1cc(OC)nc(NC(=O)CS(=O)(=O)c2ccccc2)n1	6%
CCc1[nH]nc2c1C1(CCN(C(=O)c3ccccc3)CC1)C(C#N)=C(N)O2	3%
CCCCCOC(=O)CSc1nc2c(c(=O)[nH]c(=O)n2C)n1CCc1ccccc1	1%
Fc1ccc(-c2csc3nnc(SCc4cccnc4)n23)cc1	10%
CCN(CC)CCN1C(=O)C(=O)/C(=C(/O)c2ccc(OC)c(OC)c2)C1c1ccccn1 (stereo not drawn)	-6%
Nc1nc(-c2ccccc2)c(-c2ccccc2)c(-c2nc(N)nc(-c3ccccc3)c2-c2ccccc2)n1	7%[11.4 µM]
COCCNC(=O)c1cc2cc(Br)cc(OC)c2oc1=O	-4%
Cc1nc(-c2cccc(S(=O)(=O)N3CC(C)OC(C)C3)c2)cs1 (stereo not drawn)	-1%
CCN1C(=O)c2cccc3c(S(=O)(=O)Nc4nc(C)cs4)ccc1c23	-12%
O=C(CSC1=NCCN1)Nc1ccccc1	0%[11.4 µM]
COC(=O)COc1ccc(NC(=O)C2CCCO2)cc1 (stereo not drawn)	11%
CC1Oc2ccccc2N(CC(=O)c2cccc(Cl)c2)C1=O (stereo not drawn)	-2%
COC(=O)c1ccccc1NC(=O)NCc1ccc2c(c1)OCO2	-13%
O=C(c1ccc(CS(=O)(=O)c2ccc(Br)cc2)o1)N1CCCC1	5%
COC(=O)c1cc(-c2ccc(Br)cc2)n[nH]1	-2%
Cc1ccc2c(c1)C(O)(CC(=O)c1ccc3c(c1)OCO3)C(=O)N2 (stereo not drawn)	11%
Cc1ccc(NC(=O)Cn2nc(C)cc2C)cc1	2%
Cn1c(-c2ccco2)nc2cc3ccccc3cc21	25µM*
CC(C)(C)c1cc(C(=O)N2CCN(c3ncccn3)CC2)ccn1	?
COC(=O)[C@@]1(Cc2ccc(OC)cc2)[C@H]2c3cc(C(=O)N4CCCC4)n(CCc4ccc(O)c(O)c4)c3C[C@H]2CN1C(=O)c1ccccc1	?
COc1ccc(N2C(=O)CSC2c2ccc3c(c2)OCO3)cc1 (stereo not drawn)	13%
O=C(CCNS(=O)(=O)c1cccc2nsnc12)NC1CCCc2ccccc21 (stereo not drawn)	-14%
COc1ccc(-c2ccc(-c3noc(-c4ccccc4F)n3)c(OC)n2)cc1	2µM*
O=C(O)c1cccc(C(=O)O)n1	-5%
CCn1c(SCC(=O)N2CCN(c3ccccc3F)CC2)nnc1-c1ccoc1C	5%
O=C(CSc1nnc(-c2ccco2)n1Cc1ccco1)N1CCOCC1	-4%
CCCS(=O)(=O)N1CCC(C(=O)NC2CCCCC2C)CC1 (stereo not drawn)	3%
O=C(c1ccco1)N1CCC[C@@]2(CCN(C(c3ccccc3)c3ccccc3)C2)C1	-13%
CCc1nnc(NC(=O)CSc2nnc(-c3ccco3)n2CC)s1	2%
CN1CCN(CCC(=O)Nc2cccc(F)c2)CC1	10%
O=C(CCN1CCc2ccccc2C1)Nc1ccc2c(c1)OCO2	-10%
COc1ccc(S(=O)(=O)N(C)CC(=O)N2CCC(C(N)=O)CC2)cc1Cl	10%
Cc1sc2nc3n(c(=O)c2c1C)CCCS3	-12%
Cc1ccc(S(=O)(=O)Cn2nnnc2C(c2ccccc2)N2CCN(c3ncccn3)CC2)cc1 (stereo not drawn)	19%
CC1=C(C(=O)OC(C)C)C(c2ccccn2)n2ncnc2N1 (stereo not drawn)	2%
CS(=O)(=O)N1CCN(C(=O)C2c3ccccc3Oc3ccccc32)CC1	7%
O=C1c2cccnc2C(=O)N1C1CCCCC1	-8%

Additional entries.
Structure	HSD17B inhib
CN1[C@H](CC(=O)c2ccccc2)CCC[C@H]1C[C@H](O)c1ccccc1	15%
Cc1ccc(-c2nc3ncccn3c2Nc2ccc3c(c2)OCCO3)o1	-9%
CC1CN(Cc2nc3c(c(=O)n(C)c(=O)n3C)n2CCN2CCOCC2)CC(C)O1 (stereo not drawn)	9%
CCOC(=O)Cc1csc(NC(=O)CSc2nnc(C(C)C)n2CC)n1	0%
COc1ccc(Cn2c(-c3ccco3)nc3oc4cc(OC)ccc4c(=O)c3c2=O)cc1	-11%
Cc1cc(C)nc(NC(=O)Cc2cccs2)n1	6%
C=CCNc1oc(-c2ccc(OC)cc2)nc1C#N	25µM*
CC(=O)Nc1nonc1C(=O)N1CCC(C)CC1	6%

Structures above with a furan ring, fused or not, in the order listed:
Structure	HSD17B inhib
COc1ccc(C(=O)NCc2c(CC(C)C)oc(C)c2C(=O)O)cc1	-13%
O=C(NCc1nc2ccccc2[nH]1)c1ccco1	3%
O=C(OCC#CCSc1nnc(-c2ccccc2)o1)c1ccco1	-2%
CC(C)c1nc2oc3c(N4CCN(C)CC4)ncnc3c2c2c1CCC2	11%
O=C(Nc1cccc(F)c1)N1CCC2(CC1)CCN(C(=O)c1ccco1)CC2	7%
Cc1ccc(CN2CCC(C(=O)NCCC(C)C)CC2)o1	-6%
O=C(c1ccc(CS(=O)(=O)c2ccc(Br)cc2)o1)N1CCCC1	5%
Cn1c(-c2ccco2)nc2cc3ccccc3cc21	25µM*
CCn1c(SCC(=O)N2CCN(c3ccccc3F)CC2)nnc1-c1ccoc1C	5%
O=C(CSc1nnc(-c2ccco2)n1Cc1ccco1)N1CCOCC1	-4%
O=C(c1ccco1)N1CCC[C@@]2(CCN(C(c3ccccc3)c3ccccc3)C2)C1	-13%
CCc1nnc(NC(=O)CSc2nnc(-c3ccco3)n2CC)s1	2%
Cc1ccc(-c2nc3ncccn3c2Nc2ccc3c(c2)OCCO3)o1	-9%
COc1ccc(Cn2c(-c3ccco3)nc3oc4cc(OC)ccc4c(=O)c3c2=O)cc1	-11%

Source: PubChem

These rows are one share of the data. The share of hits here may be higher or lower than overall.
